Mtb bLac sens – beta-lactam sensitization of Mtb H37Rv; inhibition, % at 25 µM; M. tuberculosis H37Rv growth with meropenem, percent inhibition; hits of this screen are not shown here; 330,000 tested, 0.27% active;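 active means about 74% or more and at least 40 points above the plate without the antibiotic, then above 30% in a dose series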;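 further: growth measured after seven days incubation then overnight dye step; 0% = bacteria only wells and 100% = bacteria with antibiotic; twin plates without the antibiotic show which effects depend on it; some results filed as inactive read as strong as hits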
Mtb H37Rv – M. tuberculosis H37Rv growth inhibitors, H37Rv strain (AID 1626) | 220,000 tested, 0.95% active | one-dose inhibition, % at 10 µM; IC50 in µM for titrated hits | M. tuberculosis H37Rv growth inhibition; higher % means a stronger effect;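 active means confirmed in a dose series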;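 further: bacteria incubated seven days before Alamar blue readout; 0% = bacteria only wells and 100% = bacteria with antibiotic wells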
YopH PTP inh – blocks Yersinia enterocolitica YopH tyrosine phosphatase | fluorescence Ex485/Em525 | inhibition, %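 (about 10 µM by stock and volumes)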 | 140,000 tested, 0.16% active | AID 898;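 active means inhibition of 50% or more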;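 further: controls were vehicle for no effect and minimum signal wells for full effect; inactives centre near -20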
RecA intein inh – Mtb RecA intein splicing inhibition | P9WHJ3 | cell-free RecA intein splicing, fluorescence | inhibition, %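 (about 9 µM by stock and volumes)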 | 290,000 tested, 0.75% active; in the data active means inhibition above about 30%;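 further: 0% = vehicle wells and 100% = reference inhibitor control wells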
Target sequence (P9WHJ3 whole entry, looked up): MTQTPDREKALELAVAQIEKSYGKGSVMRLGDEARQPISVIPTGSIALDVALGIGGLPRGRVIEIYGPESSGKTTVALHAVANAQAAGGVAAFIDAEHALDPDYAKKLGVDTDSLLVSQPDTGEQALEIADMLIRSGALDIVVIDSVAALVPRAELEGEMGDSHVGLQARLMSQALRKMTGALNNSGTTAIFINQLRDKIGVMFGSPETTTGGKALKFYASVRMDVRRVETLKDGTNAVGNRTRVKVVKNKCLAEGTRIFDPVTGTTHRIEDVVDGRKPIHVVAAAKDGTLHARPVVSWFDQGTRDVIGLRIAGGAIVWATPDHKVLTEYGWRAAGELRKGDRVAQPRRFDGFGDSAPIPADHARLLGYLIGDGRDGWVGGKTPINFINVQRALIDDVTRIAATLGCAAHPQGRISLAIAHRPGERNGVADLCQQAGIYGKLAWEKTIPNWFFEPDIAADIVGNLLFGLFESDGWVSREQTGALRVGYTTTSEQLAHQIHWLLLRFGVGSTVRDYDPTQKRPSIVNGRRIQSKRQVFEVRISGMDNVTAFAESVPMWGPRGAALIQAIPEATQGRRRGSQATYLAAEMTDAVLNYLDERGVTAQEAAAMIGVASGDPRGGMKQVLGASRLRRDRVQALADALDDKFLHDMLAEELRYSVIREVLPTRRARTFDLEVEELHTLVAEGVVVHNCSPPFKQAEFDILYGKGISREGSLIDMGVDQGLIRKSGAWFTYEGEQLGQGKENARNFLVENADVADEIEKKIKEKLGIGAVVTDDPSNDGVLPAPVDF
Arbovirus anti – arbovirus infection inhibition; 200,000 tested, 0.37% active; inhibition, % at 10 µM; arbovirus infection cell-based antiviral screen;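 active means inhibition from about 30%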;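 further: bluetongue infection of BSR cells; cell survival read as ATP light after 72 h; 0% = infected wells without compound and 100% = uninfected wells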
Arbovirus anti repeat – second read-out of Arbovirus anti, no call of its own (marks repeat the call); inhibition, %; measured here: 10K subset replicate screen; many hits read low in the repeat;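 first of two repeat runs on a subset; 0% = infected and 100% = uninfected wells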
The depositor's hits bear a star; nt = not tested or not shown. These rows are one share of the data. The share of hits here may be higher or lower than overall.

SMILES	Mtb bLac sens	Mtb H37Rv	YopH PTP inh	RecA intein inh	Arbovirus anti	others
COc1ccccc1NC(=O)CCC(=O)c1ccc(-c2ccccc2)cc1	-8	-7%	-30	0.1	-8
Cc1cc(OCCCC(=O)Nc2cccc(-n3cnnn3)c2)ccc1Cl	0	nt	nt	11	nt
Cc1ccc(C(=O)O)cc1S(=O)(=O)N1CCOCC1	-13	-10%	-27	2.4	12
CNC(=O)Cn1c(C)cc(=O)c2cccc(C)c21	-2	-7%	nt	0.5	nt
Cc1cc(NC(=O)C(C)SCC(=O)N(C)CC(=O)Nc2ccc(Br)cc2C)no1 (configuration not stated)	-6	nt	nt	1.9	nt
Cc1cccc(NC(=S)NNC(=O)c2nn(C)cc2Cl)c1	-9	3%	-43	1.6	3
COc1ccc(C(=O)N/C(=C\c2ccco2)C(=O)NC2CCS(=O)(=O)C2)cc1 (configuration not stated)	-6	-5%	nt	-0.4	-1
CCCC(C)NC1=NCCCCC1 (configuration not stated)	-1	-3%	-30	-3.3	4
COc1ccc(NC(=O)c2ccc(COc3ccccc3)o2)cc1	20	25%	-17	0.6	2
CC(=O)c1ccc(NC(=O)COc2ccccc2C(=O)Nc2ccccc2)cc1	1	nt	nt	-2.1	nt
Cc1ccc(-n2[nH]c(C)c(/C=C3/C=Nc4ccccc43)c2=O)cc1C	-3	9%	-2	7.5	-6
CCC1CN(C(=O)N2CCC(C(=O)NCCc3ccccc3)CC2)c2ccccc2O1 (configuration not stated)	-3	nt	nt	1.5	nt
O=C(c1ccccc1[N+](=O)[O-])N1CCC(Cc2ccccc2)CC1	-9	-11%	-40	1.9	-7
CS(=O)(=O)Nc1ccc(-c2n[nH]c(=S)n2-c2ccccc2)cc1	-4	-6%	-57	-0.3	-6
CC(=O)c1c(C)n(Cc2ccccc2Cl)c2ccc(O)cc12	-17	3%	nt	-1.0	-6
COc1ccc(CNC(=O)CCCCCn2c(SCC#N)nc3cc4c(cc3c2=O)OCO4)cc1	5	5%	-27	1.0	2
O=S(=O)(NCc1ccco1)c1ccc2ccccc2c1	5	nt	nt	0.9	nt
Cc1c(C(=O)N2CCN(c3ccccc3)CC2)sc2ncnc(N3CCC(C)CC3)c12	-1	nt	-31	-0.2	-2
O=C(Nc1ccccc1N1CCOCC1)c1ccc(Cl)nc1	2	-7%	nt	-0.1	0
CC(C)Cc1nc(SCC(=O)N2CC(C)OC(C)C2)c2c(=O)n(C)c(=O)n(C)c2n1 (configuration not stated)	-10	nt	nt	-0.1	nt
O=C(COC(=O)/C=C/c1ccccc1)NCC1CCCO1 (configuration not stated)	-3	-10%	nt	-0.5	2
COc1ccc(OCCSc2ncn[nH]2)cc1	nt	6%	-3	-0.9	-5
Fc1ccccc1COc1ccccc1CNCc1ccncc1	8	7%	-12	-2.4	-1
CCOc1ccc(S(=O)(=O)N2CCC(C(=O)N3CCc4ccccc4C3)CC2)cc1	-6	nt	nt	5.5	nt
O=C(NCCCn1ccnc1)C(=O)NCC(c1ccco1)N1CCN(c2ccc(F)cc2)CC1 (configuration not stated)	0	4%	nt	-2.1	-2

Quoted at random: five compounds from above, in no set order.
SMILES	Mtb bLac sens	Mtb H37Rv	YopH PTP inh	RecA intein inh	Arbovirus anti	others
Cc1c(C(=O)N2CCN(c3ccccc3)CC2)sc2ncnc(N3CCC(C)CC3)c12	-1	nt	-31	-0.2	-2
COc1ccc(C(=O)N/C(=C\c2ccco2)C(=O)NC2CCS(=O)(=O)C2)cc1 (configuration not stated)	-6	-5%	nt	-0.4	-1
Fc1ccccc1COc1ccccc1CNCc1ccncc1	8	7%	-12	-2.4	-1
O=S(=O)(NCc1ccco1)c1ccc2ccccc2c1	5	nt	nt	0.9	nt
Cc1ccc(-n2[nH]c(C)c(/C=C3/C=Nc4ccccc43)c2=O)cc1C	-3	9%	-2	7.5	-6

(more compounds)
SMILES	Mtb bLac sens	Mtb H37Rv	YopH PTP inh	RecA intein inh	Arbovirus anti	others
COc1cc2oc3ccc(C#Cc4ccc(N)cc4)cc3c(=O)c2cc1OC	1	-1%	nt	1.2	nt
Cc1ccc(S(=O)(=O)N2CCCC2CNC(=O)C(=O)Nc2ccc(F)cc2)cc1 (configuration not stated)	-9	nt	nt	2.5	nt
Nc1nc(N2CCOCC2)cc(=O)[nH]1	-8	nt	-1	-1.5	5
Cc1ccc(C(=O)NCCc2cc3ccc(C)c(C)c3[nH]c2=O)cc1[N+](=O)[O-]	2	2%	-10	-0.5	4
CCOC(=O)C(C)(C)N(Cc1ccc(Cl)cc1)S(=O)(=O)c1ccc(Cl)c([N+](=O)[O-])c1	3	5%	-14	4.9	5
c1ccc2sc(N3CN(CCN4CCOCC4)CN(c4nc5ccccc5s4)C3)nc2c1	25	-4%	-17	7.9	14
CC(C)N(CCNC(=O)C1CCN(S(=O)(=O)N2CCOCC2)CC1)Cc1ccccc1	-13	nt	-30	-1.1	4
COCCNC(=O)/C(C#N)=C/c1ccc(-c2ccc(OC)cc2[N+](=O)[O-])o1	4	-6%	-10	2.2	8
CCOCCCNC(=O)C1CCN(S(=O)(=O)c2ccc3nc4c(c(C(=O)O)c3c2)CCCCC4)CC1	-3	nt	nt	2.2	nt
CCc1cc2c(=O)n(CC(=O)NC3CCCCC3)cnc2s1	-2	nt	nt	0.0	nt
COc1cc2c(cc1NC(=O)COC(=O)[C@@H](NS(=O)(=O)c1cccc(Cl)c1)C(C)C)oc1ccccc12	1	17%	-16	4.4	4
O=C1NC(=O)N(c2ccccc2)C(=O)/C1=C/c1ccoc1	1	4%	nt	-0.6	0
Cc1ccccc1-n1c(C)cc(/C=C2/C(=N)N3C(c4ccccc4)=CSC3=NC2=O)c1C	6	13%	11	-18	-6
CC(=O)Nc1nc2ccc(NC(=O)c3ccco3)cc2s1	66	6%	-29	2.4	-2
Oc1c(C(c2ccccc2)N2CCCCC2)sc2ncnn12 (configuration not stated)	1	-7%	-38	9.5	5	Arbovirus anti repeat=1
CC(OC(=O)CCN=C1NS(=O)(=O)c2ccccc21)C(=O)Nc1ccc(F)cc1Cl (configuration not stated)	-14	nt	nt	-3.4	nt
COc1ccccc1OCCOc1ccc(C(=O)c2ccccc2)cc1	2	10%	11	1.0	-4
Cc1cc(N2CCOCC2)ccc1/C=C1\C(=O)NC(=O)N(c2ccccc2)C1=O	2	-7%	nt	nt	16
CCOC(=O)Cc1cc(=O)n2[nH]c(C)c(-c3ccc(OC)cc3)c2n1	36	3%	2	-23	3
O=c1oc2ccccc2c2c1ncn2-c1ccccc1	96	11%	27	1.0	17
COc1ccc(NC(=O)CN(c2ccccc2)S(=O)(=O)N(C)C)cc1Cl	-8	5%	nt	2.3	-3
CC(=O)/C=C\c1ccc(OC(=O)c2cccnc2)cc1	-1	nt	nt	1.3	nt
Cc1ccc(S(=O)(=O)NC(C)C(=O)Nc2ccc(C(N)=O)cc2)cc1 (configuration not stated)	-12	2%	26	1.8	11
CCOC(=O)CSc1nnc(CNc2cccc(Cl)c2)n1-c1ccccc1	-10	5%	-40	6.6	10
Cc1ccc(NC(=O)Cn2nnc(C(=O)Nc3ccc(C)c(C)c3)c2N)cc1	-24	-14%	2	-2.9	-2
New compounds follow.
SMILES	Mtb bLac sens	Mtb H37Rv	YopH PTP inh	RecA intein inh	Arbovirus anti	others
CC12CCC(=O)N1C(C(=O)OCC(=O)Nc1cc(S(=O)(=O)N3CCCCC3)ccc1Cl)CS2 (configuration not stated)	-5	5%	-14	5.1	6
CCOC(=O)C(C)Sc1nc2c(c(=O)[nH]c(=O)n2C)n1CCc1ccccc1 (configuration not stated)	-7	0%	-38	2.5	3
CC(C)C1Nc2ccc(C(=O)O)cc2C2C=CCC21 (configuration not stated)	-6	-2%	nt	-0.5	15
CS(=O)(=O)Nc1cccc(C2=NN(S(C)(=O)=O)C(c3ccccc3)C2)c1 (configuration not stated)	-6	2%	nt	-2.2	1
Cn1c(O)c(N=Nc2cccc(S(=O)(=O)N3CCOCC3)c2)c(=O)n(C)c1=O	-3	3%	nt	2.1	4
O=C(Nc1sc2c(c1C(=O)O)CCC2)c1cccs1	-1	nt	-37	-0.1	55*
CCOc1ccc(CCNC(=O)Cn2ccc3cc(S(=O)(=O)N4CCCC4)ccc32)cc1	0	nt	nt	-0.9	nt
C#Cc1ccc([C@@H]2C=C(C(=O)O)O[C@H](OCC)[C@H]2CCCO)cc1	-10	-11%	nt	-9.1	nt
CC(Cc1ccccc1)/[N+]([O-])=C\c1ccc(C(F)(F)F)cc1 (configuration not stated)	-16	nt	nt	1.0	nt
Cc1onc(-c2ccccc2Cl)c1C(=O)OCN1C(=O)c2ccccc2C1=O	-17	0%	-24	0.2	1	Arbovirus anti repeat=1
O=c1cc(O)n(Cc2ccc(F)cc2)c(=O)[nH]1	5	nt	nt	-2.3	nt
CC(CN1C(C)CCCC1C)OC(=O)c1ccccc1Cl (configuration not stated)	4	1%	nt	0.1	10
CCCCN1C(=O)/C(=C2/Sc3ccccc3N2C)S/C1=N\c1ncn[nH]1	86	56%	nt	-45	-7
COc1ccc(N2CCN(Cc3oc(CO)cc(=O)c3O)CC2)cc1	-7	-2%	-20	-5.7	-1
Cc1c(C)[n+](=O)c2c(n1[O-])C(Br)CCC2Br (configuration not stated)	-2	0%	nt	0.8	nt
CCN(CC)CCn1c2c(c(SCC(=O)Nc3nc(C)cs3)nc1=O)CCC2	-8	nt	nt	0.5	nt
Cc1cc(C)cc(NC(=O)CN2CCN(CCN=CC3=C(O)CC(C)(C)CC3=O)CC2)c1	2	1%	5	-1.6	4
CC(/C=N\NC(=O)c1ccc2c(c1)OCO2)c1ccccc1 (configuration not stated)	-4	nt	nt	-5.4	nt
CCCCN(CCCNC(=O)c1ccc2nc(N3CCOCC3)sc2c1)Cc1ccccc1	19	2%	-5	1.5	-12
CCCCCn1c(SCCN2CCOCC2)nc2c1c(=O)[nH]c(=O)n2C	-2	3%	-2	-0.1	11
CC(C)OC(=O)CCc1nc2ccccc2[nH]c1=O	0	0%	-16	-1.9	-1
O=C(CSc1nnc(CNc2ccc(F)cc2)n1Cc1ccco1)N1CCOCC1	0	-2%	-11	0.7	0
CC(C)CN(C(=O)/C=C/c1nc2ccccc2s1)C1CCS(=O)(=O)C1 (configuration not stated)	-4	nt	nt	1.9	nt
O=S(=O)(c1ccccc1)N1CCN(C(=S)NC2CCCC2)CC1	-3	nt	nt	0.1	nt
O=C1/C(=C\c2cccnc2)SC(=S)N1c1ccc(F)cc1	-8	0%	nt	2.0	10

3 structures already listed, arranged by formula weight, highest first.
SMILES	Mtb bLac sens	Mtb H37Rv	YopH PTP inh	RecA intein inh	Arbovirus anti	others
C#Cc1ccc([C@@H]2C=C(C(=O)O)O[C@H](OCC)[C@H]2CCCO)cc1	-10	-11%	nt	-9.1	nt
O=C1/C(=C\c2cccnc2)SC(=S)N1c1ccc(F)cc1	-8	0%	nt	2.0	10
CC(/C=N\NC(=O)c1ccc2c(c1)OCO2)c1ccccc1 (configuration not stated)	-4	nt	nt	-5.4	nt

Continued:
SMILES	Mtb bLac sens	Mtb H37Rv	YopH PTP inh	RecA intein inh	Arbovirus anti	others
CC(=O)Nc1ccc(NS(=O)(=O)c2ccc(CN3C(=O)c4cccnc4C3=O)cc2)cc1	1	nt	nt	-3.8	nt
CN(C)Cc1c(O)ccc2ccccc12	-6	-3%	nt	-5.4	nt
CSC1=NCCN1C(=O)c1c(-c2c(F)cccc2Cl)noc1C	-9	-6%	nt	1.2	nt
CCN(CC)c1ccc(S(=O)(=O)N2CCOCC2)cc1NC(=O)COC(=O)/C=C/c1ccc(C)o1	-8	nt	nt	5.3	nt
Cn1c(=O)c2c(nc(SCc3nc(N)nc(N4CCCCC4)n3)n2C)n(C)c1=O	-1	-8%	-29	-3.7	-4
COc1cc(OC)cc(C(=O)Nc2ccccc2S(=O)(=O)N2CCCC2OC(C)=O)c1 (configuration not stated)	-8	nt	nt	5.0	nt
COc1ccccc1C(=O)Nc1ccccc1C(=O)N1CCCC1	13	-3%	7	-0.3	0
CSc1ccc(S(=O)(=O)N(CC(=O)NCc2ccccn2)c2ccc(C)cc2)cc1	-5	nt	nt	3.9	nt
C=C(C)CSc1cc(C)c(C#N)c2nc3ccccc3n12	95	nt	-26	-98	6
COc1ccc(C(=O)NCCS(=O)(=O)N2CCOCC2)cc1	-1	nt	nt	-1.9	nt
COc1ccc(NC(=O)c2ccc3c(c2)S(=O)(=O)c2ccccc2C3=O)cc1	-2	-2%	nt	-3.2	nt
CC(NS(=O)(=O)c1ccc2c(c1)C(=O)c1cc(S(=O)(=O)NC(C)C(=O)O)ccc1-2)C(=O)O (configuration not stated)	-4	nt	nt	-0.1	nt
COC(=O)c1ccccc1NC(=O)C1CC(c2ccc(F)cc2)=NO1 (configuration not stated)	-3	4%	-52	0.0	5

Structures listed so far containing bromine (2):
SMILES	Mtb bLac sens	Mtb H37Rv	YopH PTP inh	RecA intein inh	Arbovirus anti	others
Cc1cc(NC(=O)C(C)SCC(=O)N(C)CC(=O)Nc2ccc(Br)cc2C)no1 (configuration not stated)	-6	nt	nt	1.9	nt
Cc1c(C)[n+](=O)c2c(n1[O-])C(Br)CCC2Br (configuration not stated)	-2	0%	nt	0.8	nt

Compound activity deposited in PubChem by several laboratories.
